# Biofilm kill mix: mixtures killing C. albicans biofilm | inhibition, % at 7.6 µM | C. albicans biofilm persisters + clotrimazole, fluorescence viability; primary screen in compound mixtures of four per well | hit rate 0.02% among 120,000 | AID 1242;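 active means inhibition above 30.3% in the primary screen of four-compound pools, then above 30% when the compound was retested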;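 further: compounds exposed to preformed 24 h biofilms for 48 h; the number belongs to the whole pool; some results filed as inactive read as strong as hits; inactives centre near 12; 0% = biofilm with clotrimazole alone and 100% = kill control; retested singly at about 60 µM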
#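 Test system: C. albicans CAF4-2 wild-type biofilms; buffer or medium: RPMI/MOPS medium, pH 7.0; schedule: 24 h biofilm formation, then 48 h compound exposure, 37 °C; detection: Alamar Blue fluorescence; measure: percent inhibition of biofilm viability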
# An asterisk follows results filed as active; & = joins results of further samples. This is a subset. The share of hits here may be higher or lower than overall.
SMILES,Biofilm kill mix
O=c1c2ccccc2nc(-c2ccccc2)n1-c1ccccn1,32
CCCn1cc(CN2CCCC(C(=O)c3cccc(OC)c3)C2)c(C)n1 (stereo not given),6
CCC1CCCCN1CC(=O)c1ccc(OC(F)F)cc1 (stereo not given),17
COc1cccc(N=Nc2c(O)[nH]c(=S)[nH]c2=O)c1,17
Cn1c(=O)c2nncnc2n(C)c1=O,9
Cc1cc(C)cc(NC2=NCCCS2)c1,-16
COc1cccc(C2(C#N)CCN(C)CC2)c1,5
Cc1nc2c(C(=O)N3CCC4(CC3)OCCO4)cnn2c(C)c1Cc1cccc(Cl)c1,10
CCN1C(=O)NC(=O)/C(=C/c2cc(C)n(-c3sc(C)c(C)c3C#N)c2C)C1=O,13
C=C(COC(=O)CCC(=O)O)CC1CC(O)[C@]2(C)OC3CC4OC5C[C@]6(C)O[C@]7(C)CCC8OC9C[C@]%10(C)OC%11C(C)=CC(=O)OC%11CC%10OC9C[C@@H](C)C8OC7CC6O[C@]5(C)C/C=C\C4OC3CC2O1 (stereo not given in full),11
O=c1[nH]c(=S)[nH]c(O)c1N=Nc1ccc(SC(F)F)cc1,18
CC(C)OP(=O)(OC(C)C)C(NCc1ccccc1)c1ccccc1 (stereo not given),20
O=C1CC2OCC=C3CN4CCC56c7cc([N+](=O)[O-])ccc7N1C5C2C3CC46 (stereo not given),10
Cc1ccc2c(c1)c(=O)c1c3n2CCN(CC2CO2)C3CC1 (stereo not given),10
C=C(C)Cn1c(=O)n(CC2CS2)c2ccccc21 (stereo not given),22
C[n+]1c(-c2ccccc2)cc(-c2ccc(Cl)cc2)cc1-c1ccccc1,22
COc1ccc(N2C(=O)NC(=O)C(CCc3ccncc3)(CCc3ccncc3)C2=O)cc1,12
COc1ccc([N+](=O)[O-])cc1N=Cc1c(O)n(CCc2ccccc2)c(=O)n(C(C)C)c1=O,9
C/C(=N\N=C(N)N)c1ccccc1,24
CCCCCCC(=O)N/N=C/c1c(O)n(CCCC)c(=S)[nH]c1=O,17
Cc1cccc(-n2c(O)c(C)c(=O)[nH]c2=S)c1,15
COc1ccc(-n2c(-c3ccc(C)cc3)nc3ccccc3c2=O)cc1,19
NC(=S)/N=C/c1c(O)[nH]c(=O)[nH]c1=O,16
c1ccc(-c2nc(N3CCOCC3)s[n+]2-c2ccccc2)cc1,19
Cc1cccc(N2C(=O)NC(=O)/C(=C/c3ccc(-c4ccc(C(=O)O)c(Cl)c4)o3)C2=O)c1,16
Cc1ccc(OCC(=O)N2CCN(Cc3ccc4c(c3)OCO4)CC2)cc1,11
CC1CCCN(C(=O)CCl)C1 (stereo not given),13
O=c1[nH]c(=S)n(-c2ccc(Br)cc2)c(O)c1C=Nc1ccc(N2CCOCC2)cc1,16
C/C=C1/CC(C)C(C)(O)C(=O)OCC2CCN3CCC(OC1=O)C23 (stereo not given),26
Cc1nn(Cc2ccccc2)c(C)c1C(=O)NCc1ccccc1,23

# Reformatted with bars between the fields: entries from further up.
molecule | Biofilm kill mix
CCN1C(=O)NC(=O)/C(=C/c2cc(C)n(-c3sc(C)c(C)c3C#N)c2C)C1=O | 13
C=C(COC(=O)CCC(=O)O)CC1CC(O)[C@]2(C)OC3CC4OC5C[C@]6(C)O[C@]7(C)CCC8OC9C[C@]%10(C)OC%11C(C)=CC(=O)OC%11CC%10OC9C[C@@H](C)C8OC7CC6O[C@]5(C)C/C=C\C4OC3CC2O1 (stereo not given in full) | 11
O=c1[nH]c(=S)[nH]c(O)c1N=Nc1ccc(SC(F)F)cc1 | 18

# Later entries
SMILES,Biofilm kill mix
S=C1NCCN1,22
Cc1c(C(c2ccccc2Cl)c2c(O)c3ccccc3oc2=O)c(=O)n(-c2ccccc2)n1C (stereo not given),17
Nc1nnc(P(c2ccccc2)c2ccccc2)s1,16
CN1C2c3ccccc3C3C4c5ccccc5C(C31)C(C2[N+](=O)[O-])N4C (stereo not given),20
CN(C)C(=O)O/N=C(\N)COc1ccc(C(C)(C)C)cc1,19
CNC(=S)N1CC2CC(C1)c1cccc(=O)n1C2 (stereo not given),3
C/C=C(\C)C(=O)OC1C(C)=C2C(C1OC(=O)CCCCC)C(C)(OC(C)=O)CC(OC(=O)CCC)C1(O)C2OC(=O)C1(C)O (stereo not given),21
CC(=O)N1N=C2C3CCN(CC3)C2C1c1ccc(Br)cc1 (stereo not given),17
COC(=O)C(O)(c1ccc(NC(=O)c2cccs2)cc1)C(F)(F)F (stereo not given),21
COP(=O)(OC)C(O)C(Cl)(Cl)Cl (stereo not given),2
CNc1ccc2oc(C[C@H]3O[C@@]4(CC[C@H]3C)O[C@H]([C@H](C)C(=O)c3ccc[nH]3)[C@H](C)C[C@H]4C)nc2c1C(=O)O,15
Cc1ccc(/C=C2/C(=O)NC(=O)N(CCc3ccc(F)cc3)C2=O)s1,17
CCC(C)/C=C(C)/C=C/C1=CC2=C(Cl)C(=O)C(C)(OC(C)=O)C(=O)C2=CO1 (stereo not given),20
O=C(O)CCCc1ccc(N(CCCl)CCCl)cc1,8
Cc1ccsc1C(=O)C1CCCN(Cc2cc3ccccc3o2)C1 (stereo not given),12
CCC12CN3CCN(CC(C3)/C1=N/NC(N)=O)C2,17
COc1ccccc1C(=O)C1CCCN(Cc2cnc(C)s2)C1 (stereo not given),9
CCCCCCn1c(=O)c(C(=O)Nc2nnc(C)s2)c(O)c2ccccc21,-4
C[C@H]1CCC/C=C/C2C[C@H](O)CC2[C@H](O)/C=C/C(=O)O1 (stereo not given in full),23
O=c1[nH]c(=S)n(C2CC2)c(O)c1/C=N/Nc1ccccc1,14
CCN(CC)c1ccc([N+](=O)[O-])c2cccnc12,8
Cc1ccc(OP(=O)(NC(C)c2ccccc2)Oc2ccc(C)cc2)cc1 (stereo not given),23
C=CCn1c(O)c(C(C)=NCCCN(C)C)c(=O)[nH]c1=O,13
CCOc1ccc(NC(=O)C2C3c4ccccc4C(c4ccccc43)C2C(=O)O)cc1 (stereo not given),23
COC(=O)c1ccccc1OP(=O)(c1cccc([N+](=O)[O-])c1)c1cccc([N+](=O)[O-])c1,7
Cc1cccc2c1=NC(=O)/C(=C/c1c(O)[nH]c(=O)[nH]c1=O)C=2,23
CCOC(=O)c1c(C)n(Cc2ccccc2)c2ccc(O)cc12,-5
CCC(C)n1c(O)c(/C=N/NC(=O)c2ccncc2)c(=O)[nH]c1=S (stereo not given),9
N#Cc1cc2c(nc1SCC(=O)Nc1cc(Cl)ccc1Cl)C1CCN2CC1,17
CCOc1ccc(-n2c(O)c(N=Nc3ccc([N+](=O)[O-])cc3)c(=O)[nH]c2=O)cc1,10
CN1CCN(Cc2nnc3n2-c2ccc(Cl)cc2C(c2ccccc2)=NC3)CC1,13
O=c1[nH]c(=S)n(-c2ccc(Cl)cc2)c(O)c1/C=N/N1CCOCC1,13
CCOC(=O)[C@@]12C(=O)C(=O)N[C@]1(c1ccccc1)C1OCCCC12 (stereo not given in full),17
O=C(O)[C@H]1C[C@@H]1[C@H](NP(=O)(c1ccccc1)c1ccccc1)c1ccccc1,16
CN1C2CCC1/C(=C/c1ccccn1)C(=O)/C2=C\c1ccccn1,7
O=C1NC(=O)N(c2ccc(Cl)cc2)C(=O)/C1=C\c1ccc(Sc2nc3ccccc3[nH]2)o1,6
CN(C)C(=O)Oc1ccc(OCc2nc3ccccc3[nH]2)cc1,5
COc1ccc(NC(=O)N2CCC3(CC2)OCCO3)cc1,14
CCOP(=O)(OCC)C(NC(=O)c1ccccc1)=C(Cl)Cl,-10
COc1ccccc1OCCCn1cc(C(C)=O)c2ccccc21,27
CCCCC(=O)N/N=C/c1c(O)n(-c2ccccc2)c(=O)[nH]c1=O,10
Cc1ccc(/C=C2\C(=O)NC(=S)N(c3ccc(F)cc3)C2=O)s1,9
CC1(C)OC1COc1c2occc2cc2ccc(=O)oc12 (stereo not given),18
c1cnc2c(c1)ccc1ncccc12,7
CCCCCCn1c(O)c(C=Nc2ccccc2N2CCOCC2)c(=O)[nH]c1=S,19
Cc1nc2cc([N+](=O)[O-])ccc2c(=O)n1-c1ccccc1[N+](=O)[O-],11
Clc1ccccc1CNC1CN2CCC1CC2 (stereo not given),12
COc1ccc(-n2c(Cc3ccccc3)nc3ccccc3c2=O)cc1,27
COC(=O)[C@@H]1C[C@@]1(C)[C@@H](NP(=O)(c1ccccc1)c1ccccc1)c1ccccc1,9
CSc1ncc(CN2CCCC(C(=O)c3sccc3C)C2)cn1 (stereo not given),15
CCN(CC)S(=O)(=O)c1cc(NC(=O)C(C)N2CC=C(c3ccccc3)CC2)ccc1C (stereo not given),-2
CC(=O)Nc1cc([As](=O)(O)O)ccc1O,9&16
CN1CCN(c2ccc([N+](=O)[O-])c(Sc3nncn3C)c2)CC1,13
CCCCCCC(=O)N/N=C/c1c(O)n(C(C)CC)c(=S)[nH]c1=O (stereo not given),16
O=c1c2ccccc2nc(Cc2ccccc2)n1-c1cccc(O)c1,7
Clc1ccc2c(c1)C(c1ccccc1Cl)=NCc1nnc(N3CCN(CCOc4ccccc4)CC3)n1-2,15
O=c1[nH]c(=S)n(-c2ccccc2)c(O)c1/C=N/N1CCOCC1,5
CC(C)CCNC(=O)c1cc(C(=O)c2cc(Br)ccc2O)cn(CCC(C)C)c1=O,9
O=C(NC1CN2CCC1CC2)c1ccc(-c2ccc([N+](=O)[O-])cc2)o1 (stereo not given),-10
O=[N+]([O-])c1ccc(C2[C@H]3C(c4ccccc4)=NC4(CCCCC4)N23)cc1 (stereo not given in full),12

# Following part
SMILES,Biofilm kill mix
CCOC(=O)c1nsnc1NCCCl,30
CC(C)N1CCN(Cc2ccccc2C(F)(F)F)CC1CCO (stereo not given),10
Cc1ccc(-n2c(C)nc3ccccc3c2=O)c(C)c1,15
O=C1NC(=O)C(CCc2ccncc2)(CCc2ccccn2)C(=O)N1c1ccc(Br)cc1 (stereo not given),13
C=CCc1cc(C=C2C(=O)N(C)C(=O)N(C)C2=O)cc(OCC)c1OCc1ccccc1,11
O=[N+]([O-])c1ccc(N2CCCC2)cc1N/N=C1\CN2CCC1CC2,15
O=c1[nH]c(=O)n(CCc2ccccc2)c(O)c1C=NC1CC1,14
COCCCN=Cc1c(O)[nH]c(=S)[nH]c1=O,14
O=c1[nH]c(=S)n(Cc2ccc(F)cc2)c(O)c1C=NCc1ccc2c(c1)OCO2,30
Cc1ccc(OCC(=O)N2CCN(C3CCC(c4ccccc4)CC3)CC2)cc1 (stereo not given),6
CC(=O)Nc1ccc([As](=O)(O)c2ccc([N+](=O)[O-])cc2)cc1,16
O=C(COC(=O)c1ccc(O)cc1)Nc1ccc(Cl)cc1C(=O)c1ccccc1,20
N#CC(C#N)=NNc1ccc(S(N)(=O)=O)cc1,21
CCN(CCO)c1ccc(N=Cc2c(O)n(C)c(=S)[nH]c2=O)cc1,22
O=C1NC(=O)C(=Cc2ccc3c(c2)OCO3)C(=O)N1,16
CCN(CC)C(=O)c1ccc(NC(=O)CCCSc2ccccc2)cc1,16
NC(=O)c1cn(C2OC(CO)C(O)C2O)c2ncnc(N)c12 (stereo not given),6
Cn1cccc1/C=C1/C(=O)NC(=O)N(Cc2ccc(F)cc2)C1=O,3
COc1ccc(O)c(C(C)(C)C)c1,11
C/C(=N\N1CCN(C)CC1)c1c(O)n(Cc2ccccc2)c(=O)[nH]c1=O,17
COc1ccc2cc(C(=O)C3CCCN(C4CCOCC4)C3)ccc2c1 (stereo not given),13
Clc1ccc(C(c2ccccc2)c2ncc[nH]2)cc1 (stereo not given),16
CCOC(=O)C1CCN(/C=C2/C(=O)NC(=O)N(c3cccc(C)c3C)C2=O)CC1,27
Cc1nc2ccc(Cl)cc2c(-c2ccccc2)c1C(=O)O,20

# Filtered by structure, the compounds so far containing a Cl atom
SMILES,Biofilm kill mix
Cc1nc2c(C(=O)N3CCC4(CC3)OCCO4)cnn2c(C)c1Cc1cccc(Cl)c1,10
C[n+]1c(-c2ccccc2)cc(-c2ccc(Cl)cc2)cc1-c1ccccc1,22
Cc1cccc(N2C(=O)NC(=O)/C(=C/c3ccc(-c4ccc(C(=O)O)c(Cl)c4)o3)C2=O)c1,16
CC1CCCN(C(=O)CCl)C1 (stereo not given),13
Cc1c(C(c2ccccc2Cl)c2c(O)c3ccccc3oc2=O)c(=O)n(-c2ccccc2)n1C (stereo not given),17
COP(=O)(OC)C(O)C(Cl)(Cl)Cl (stereo not given),2
CCC(C)/C=C(C)/C=C/C1=CC2=C(Cl)C(=O)C(C)(OC(C)=O)C(=O)C2=CO1 (stereo not given),20
O=C(O)CCCc1ccc(N(CCCl)CCCl)cc1,8
N#Cc1cc2c(nc1SCC(=O)Nc1cc(Cl)ccc1Cl)C1CCN2CC1,17
CN1CCN(Cc2nnc3n2-c2ccc(Cl)cc2C(c2ccccc2)=NC3)CC1,13
O=c1[nH]c(=S)n(-c2ccc(Cl)cc2)c(O)c1/C=N/N1CCOCC1,13
O=C1NC(=O)N(c2ccc(Cl)cc2)C(=O)/C1=C\c1ccc(Sc2nc3ccccc3[nH]2)o1,6
CCOP(=O)(OCC)C(NC(=O)c1ccccc1)=C(Cl)Cl,-10
Clc1ccccc1CNC1CN2CCC1CC2 (stereo not given),12
Clc1ccc2c(c1)C(c1ccccc1Cl)=NCc1nnc(N3CCN(CCOc4ccccc4)CC3)n1-2,15
CCOC(=O)c1nsnc1NCCCl,30
O=C(COC(=O)c1ccc(O)cc1)Nc1ccc(Cl)cc1C(=O)c1ccccc1,20
Clc1ccc(C(c2ccccc2)c2ncc[nH]2)cc1 (stereo not given),16
Cc1nc2ccc(Cl)cc2c(-c2ccccc2)c1C(=O)O,20
